Screening data (PubChem)
TRPV1 potentiator – human TRPV1 potentiation; Q8NER1; TRPV1-expressing cells, Fluo-8 calcium influx, capsaicin EC20 potentiation; host cell line not named in the record; control for the full effect not named in the record; 320,000 compounds, 0.02% hits; potentiation, % at 8.33 µM; active means potentiation above 80%; inconclusive means 30% to 80%; inactive means below 30%; note: 0% is about no effect
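TRPV1-expressing cells were cultured overnight at 35.5C and loaded with Fluo-8 calcium dye for 40 to 90 min at room temperature. After a 10 s baseline, compound was added and calcium influx was read kinetically for 3 min (ex 480/em 520 nm).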
CtBP-E1A blk – inhibitors of CtBP/E1A interaction | AlphaScreen GST-E1A/His-CtBP binding, 1536-well; active compounds read low; control for the full effect not named in the record | activity change, % (concentration not given with the values) | 340,000 compounds, 0.49% hits | AID 651724; in the data active means activity change below about -65%; inconclusive means about -30% to -65%; inactive means above about -30%; note: % is set by controls: 0 for no effect and ±100 for the full control effect
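In 5 uL wells, 23 nL compound meets equimolar GST-E1A and His-CtBP (5X stock 125 nM each) for 2 h, 37 °C. Beads (5X, 50 ug/mL) then 1 h, 37 °C, dark.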
Sfp PPTase inh – inhibitors of Bacillus subtilis Sfp phosphopantetheinyl transferase. Biochemical Sfp PPTase activity, qHTS. 310,000 compounds, 3.5% hits. AID 1490. Potency, µM, for the others: max response, negative = inhibition, hits mostly inhibitors; active = well fitted inhibition curve with a large enough effect; inconclusive = small, poorly fitted or top-dose-only effect, or another doubt; inactive = no such curve, though single readings can be large or run the other way;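 note: the enzyme is Sfp with the accession as filed and its product quenches rhodamine fluorescence; potency is the fitted concentration of half-maximal effect; 0% = enzyme reaction without inhibitor and -100% = no enzyme wells; top concentration of the series not given in the record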
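Sfp 15 nM + cpd, 15 min RT; start w/ rhodamine-CoA 5 uM, BHQ-2-YbbR 12.5 uM (final); 50 mM Hepes pH 7.6, 10 mM MgCl2, 0.01% NP-40, 0.01% BSA; read 525/598 nm at 0 and 30 min.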
D2 agonist – human D2 receptor agonism in beta-arrestin assay | P14416 | DiscoveRx PathHunter D2 beta-arrestin, luminescence, 90 min; 100% = 57 uM dopamine signal | activation, % (test concentration not listed) | 360,000 compounds, 0.084% hits; in the data active = activation above about 40%; inconclusive = about 15% to 40%; inactive = below about 15%; note: compound concentration not given in the record; the text of the record calls up to 30% inactive
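DiscoveRx PathHunter D2 beta-arrestin cells (2,100/well) attached overnight, then compound-stimulated 90 min at 37 C in HBSS/10 mM HEPES/0.1% Tween-20 buffer; beta-galactosidase complementation read by luminescence after 1 h at ambient temperature. Dopamine 57 uM final (EC100) as control.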
Six1-Eya2 inh – Six1/Eya2 interaction inhibition. Q15475+O00167. AlphaScreen GST-Six1/His-Eya2 binding, biochemical; active compounds read low; control for the full effect not named in the record. activity change, % (concentration not given with the values). 360,000 compounds, 0.56% hits. AID 651725; in the data active = activity change below about -65%; inconclusive = about -30% to -65%; inactive = above about -30%; note: % is set by controls: 0 for no effect and ±100 for the full control effect
Target sequence (O00167 whole entry, looked up): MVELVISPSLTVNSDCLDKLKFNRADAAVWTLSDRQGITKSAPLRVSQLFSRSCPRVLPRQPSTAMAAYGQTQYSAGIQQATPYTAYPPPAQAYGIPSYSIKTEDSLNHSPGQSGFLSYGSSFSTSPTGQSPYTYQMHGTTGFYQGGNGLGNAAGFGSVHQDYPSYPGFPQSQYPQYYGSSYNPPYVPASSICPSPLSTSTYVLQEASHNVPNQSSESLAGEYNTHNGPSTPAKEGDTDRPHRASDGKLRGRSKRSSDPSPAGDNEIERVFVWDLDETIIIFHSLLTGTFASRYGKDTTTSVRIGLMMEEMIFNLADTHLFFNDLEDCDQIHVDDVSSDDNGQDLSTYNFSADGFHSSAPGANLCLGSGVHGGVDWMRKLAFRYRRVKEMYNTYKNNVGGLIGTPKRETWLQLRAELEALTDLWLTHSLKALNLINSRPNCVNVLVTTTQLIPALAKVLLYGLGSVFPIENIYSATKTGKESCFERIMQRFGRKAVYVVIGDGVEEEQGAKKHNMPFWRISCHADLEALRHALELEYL
Target sequence (Q15475 whole entry, looked up): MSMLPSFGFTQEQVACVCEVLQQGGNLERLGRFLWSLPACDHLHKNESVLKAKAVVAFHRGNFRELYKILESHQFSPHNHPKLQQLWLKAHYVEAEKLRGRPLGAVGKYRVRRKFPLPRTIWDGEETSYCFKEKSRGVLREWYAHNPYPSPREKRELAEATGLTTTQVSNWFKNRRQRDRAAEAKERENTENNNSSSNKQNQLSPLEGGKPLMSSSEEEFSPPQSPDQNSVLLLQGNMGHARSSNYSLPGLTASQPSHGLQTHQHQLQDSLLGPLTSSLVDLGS
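Six1/Eya2 binding was read as AlphaScreen signal after compounds were pinned into GST-Six1 plus His-tagged Eya2 (5X stock 250/500 nM) in pH 8.0 Tris/NaCl/TCEP buffer, beads added, then incubated 1 h, 37 C, dark.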
D2 potentiator – human D2 receptor positive allosteric modulation. P14416. potentiation, % (no concentration beside the values). DiscoveRx D2 beta-arrestin cells, luminescence, 90 min; 100% = 57 uM dopamine signal. 360,000 compounds, 0.23% hits; active = potentiation of 50% or more; inconclusive = 30% to 50%; inactive = 30% or less;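 note: compound concentration not given in the record; tested on top of an EC20 dose of dopamine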
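D2 cells co-treated with compound plus 50 nM dopamine (EC20) for 90 min at 37 deg C to detect potentiation. Beta-arrestin recruitment was read as enzyme-fragment luminescence after 1 h at ambient temperature. Full response was set by 57 uM dopamine.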
PINK1 expr mod – changes PINK1 expression. PINK1 immunofluorescence, high-content cytometry, 24 h. Potency, µM (highest dose often 76.6 µM), for inactives: at the highest dose activation (PINK1 increase), usual class: activators. 410,000 compounds, 0.2% hits. AID 624263; active = well fitted activation curve with a large enough effect; inconclusive = small, poorly fitted or top-dose-only effect; inactive = flat fitted curve, though single readings scatter; cell line not stated here;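 note: potency is the fitted concentration of half-maximal effect; % of control where 0% means no effect; nearly all actives have a fitted effect of over 65% in size; a mitochondrial uncoupler was the plate control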
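Stable cell line treated 24 h with compounds at 5 concentrations (CCCP controls), then fixed and immunostained for PINK1 plus nuclear and cell stains; PINK1 immunofluorescence quantified by laser-scanning microplate cytometry.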
An asterisk follows results filed as active; ? = inconclusive; / = not tested or not shown; [ ] = dose if it differs, or a comment.

Second line of a record – PINK1 expr mod	TRPV1 potentiator	Sfp PPTase inh	D2 potentiator	D2 agonist	CtBP-E1A blk	Six1-Eya2 inh
(1) CCOc1ccc(S(=O)(=O)N2CCCCC2)cc1NC(=O)CCNC(=O)c1ccco1
→ 17%	-8	/	4	0.8	3	-2
(2) CC(C)CC(=O)Nc1ccc(C(=O)COC(=O)C2CC(=O)N(Cc3ccccc3)C2)cc1 (centres undefined)
→ 1.1%	-2	/	-1	-0.3	-16	8
(3) Cc1ccc(C)c(NCC(O)c2ccccc2)c1 (centres undefined)
→ 3.2%	1	25%	-5	-0.9	-10	-7
(4) CCNC(=S)Nc1ccc(OC(F)(F)F)cc1
→ -1.0%	-4	15%	-4	-0.3	5	27
(5) COc1ccc2oc(C(=O)OCC(=O)N3CCN(S(=O)(=O)c4ccc(C)cc4)CC3)c(C)c2c1
→ -0.7%	5	3%	-4	4.8	-1	2
(6) Nc1ncnc2c1ncn2[C@@H]1O[C@H](CNCc2cccn2-c2nccs2)[C@@H](O)[C@H]1O
→ -0.9%	/	/	0	-2.6	3	0
(7) CCC(C)[C@H]1CNC(=O)C(=O)N1CC(C)(C)C (some centres undefined)
→ 0.6%	/	/	/	/	7	15
(8) CC(C)c1ccc(NC(=O)Nc2nc(C(N)CCc3ccccc3)cs2)cc1 (centres undefined)
→ -0.8%	/	/	7	5.5	-23	-11
(9) O=C(CSC1=NS(=O)(=O)c2cc(Cl)ccc2N1)Nc1ccccc1C(F)(F)F
→ -3.5%	?	/	-2	-2.5	-4	0
(10) CS(=O)(=O)c1ccc2nc(NC(=O)c3ccc(Cl)cc3)sc2c1
→ 8.3%	-24	12%	-4	0.8	9	2
(11) Cc1cccc(Cn2cnc3ccccc32)c1
→ -0.1%	0	15%	-5	0.5	-2	7
(12) O=C(/C=C/c1ccccn1)c1cc(Br)ccc1O
→ -1.7%	/	?	4	0.1	2	1
(13) COCCCn1c(=O)c2sccc2n(Cc2ccccc2)c1=O
→ -1.6%	?	-4%	-6	7.2	-15	-25
(14) COc1cc(SC)ccc1C(=O)Nc1ncc(C)s1
→ -2.8%	-15	11%	-12	-2.0	/	0
(15) CC(=O)c1ccc(NC(=O)c2cnsn2)cc1
→ 5.5%	-13	5%	-4	-0.4	-22	-5
(16) COc1ccc(CCNC(=O)N2c3ccccc3Sc3ccccc32)cc1
→ 1.6%	/	/	20	1.1	9	-2
(17) Cc1ccc(C)c(NC(=O)c2ccccc2NS(=O)(=O)c2cc([N+](=O)[O-])ccc2C)c1
→ 8.9µM*	-2	2%	-2	-4.7	1	5
(18) COc1ccccc1C1=NOC(Cn2c(=O)c3c(ncn3C)n(C)c2=O)C1 (centres undefined)
→ 0.8%	6	14%	-15	-2.3	-6	-13
(19) CC1(C)C(=O)CCC2(C)C1=CCC1C2C(=O)CC2(C)C1CCC2(O)C(=O)CO (centres undefined)
→ 0.7%	/	/	-31	-2.6	8	12
(20) COc1ccc(C)cc1NC(=S)Nc1ccccc1SC
→ 0.2%	4	1%	-18	1.4	4	0
(21) Cc1ccc(C(=O)Nc2ncc([N+](=O)[O-])s2)cc1
→ 35µM*	-8	-2%	-8	-7.3	12	-6
(22) COc1ccc(-c2csc(C(C)(O)c3cccc(OC)c3)n2)cc1 (centres undefined)
→ 4.7%	/	/	6	0.4	4	4
(23) Nc1[nH]c2cc([N+](=O)[O-])ccc2c1-c1ccccn1
→ 9.1%	-6	6%	-14	-14	?	?
(24) O=C(Nc1ccccc1)/C(=C1\CCCN1)[N+](=O)[O-]
→ 1.6%	-3	5%	0	0.1	0	1
(25) COc1ccc(C2CC(=O)N3CN(c4ccc(C)c(Cl)c4)CSC3=C2C#N)cc1 (centres undefined)
→ -0.8%	/	2.8µM*	-2	12	6	-9
(26) O=C(Nc1nc2c(F)cc(F)cc2s1)c1ccc([N+](=O)[O-])o1
→ 16%	-17	17%	5	-1.6	2	-7
(27) Cc1cccc(NC(=O)c2ccc3c(c2)OCCO3)n1
→ -0.9%	-17	-2%	-4	-6.1	0	15
(28) NS(=O)(=O)c1ccc(NC(=O)CCc2ccccc2)cc1
→ 6.4%[38.3 µM]	3	14%	6	0.4	2	0
(29) CCCCNc1ncnc2sc3c(c12)CCN(CCC)C3
→ 2.0%	5	-3%	-4	2.1	1	4
(30) O=C(/C=C/c1ccco1)Nc1ccc2nc3n(c(=O)c2c1)CCCC3
→ 0.5%	-2	-21%	-8	0.5	-2	-19
(31) Cc1cccc(C)c1NC(=O)CSc1cc(C(=O)c2nccn2C)c2ccccc2n1
→ 6.5%	-3	-11%	-8	-4.1	1	-20
(32) CCC1CCCCN1S(=O)(=O)c1ccc(NC(=O)C2CC(=O)N(C(C)(C)C)C2)cc1 (centres undefined)
→ 0.4%	/	/	-5	-2.1	-5	13
(33) COCCN(C(C)=O)c1nnc(-c2ccccn2)s1
→ 1.2%	8	-18%	-4	-0.2	-5	-6
(34) O=C1CC(C(=O)Nc2nccs2)C(c2ccccc2)O1 (centres undefined)
→ -6.7%[38.3 µM]	9	19%	-3	1.1	1	4
(35) CCCN1CCN(C(=O)c2ccc(-c3ccc([N+](=O)[O-])cc3)o2)CC1
→ -1.0%	-1	/	-1	3.9	-4	-4
(36) CCN1CCN(CC(=O)Nc2ccc(Cl)c(S(=O)(=O)N(C)C)c2)CC1
→ 0.1%	1	40µM*	-18	-4.5	/	8
(37) CNC(=S)N(Cc1cc2cc(OC)c(OC)cc2[nH]c1=O)C1CCCC1
→ 0.6%	-4	-26%	1	-0.6	-5	-4
(38) CCC(C)(C)NC(=O)COc1ccc(OCc2ccccc2)cc1
→ 2.9%	-20	4%	1	-1.6	-17	5
(39) CC(=O)Nc1cc(-c2ccc(N(C)C)cc2)cn2c(-c3ccc(F)c(Cl)c3)cnc12
→ 3.3%	/	/	-2	5.3	-28	-17
(40) [O-][n+]1c2ccccc2c2n1CCN=C2c1ccc(Cl)cc1
→ 2.6%	?	/	-1	3.0	/	-7
(41) Cc1[nH]c2ccccc2c(=O)c1SC(F)(F)C(F)C(F)(F)F (centres undefined)
→ 2.1%	-1	-5%	-17	-3.4	-9	-8
(42) CCN1C(=O)C(CC(=O)Nc2ccc(F)cc2)N(Cc2ccc3c(c2)OCO3)C1=S (centres undefined)
→ ?	-4	17%	-2	-0.4	-8	-11
(43) Cc1cc(C(=O)N2CCN(c3ccc(C(F)(F)F)cn3)CC2)c(C)o1
→ 3.2%	0	10%	-17	-1.3	/	-3
(44) COc1ccc(Nc2nc(N)nc(CN3CCOCC3)n2)cc1
→ -1.6%	-16	-19%	6	-0.5	-2	-4
(45) O=C(CCN1C(=O)C2C3CC(C(Br)C3Br)C2C1=O)OCC(=O)c1ccccc1 (centres undefined)
→ -0.3%	-4	-15%	-5	-5.1	1	-8
(46) CC12CCCCC1=CC(=O)CC2 (centres undefined)
→ 1.3%	/	/	-33	-2.8	8	11
(47) COc1cc(NC(=O)c2cc3ccccc3cc2OC)ccc1NC(=O)c1cccs1
→ 0.4%	-5	-9%	9	9.4	?	-15
(48) O=Cc1cc(OCc2ccccc2)ccc1[B-](F)(F)F
→ 1.6%	/	/	/	2.5	-8	-1
(49) CCn1c(SCc2nc3sc(C(=O)O)c(C)c3c(=O)[nH]2)nc2ccccc21
→ -1.7%	7	?	6	-0.6	-8	-68*
(50) Cc1cc(OCC(=O)NC(C)c2ccccc2)ccc1[N+](=O)[O-] (centres undefined)
→ 0.9%	-27	2%	-7	-1.3	-5	-3
(51) CCc1cccc(-n2c(SCC(=O)c3c(N)n(C4CC4)c(=O)[nH]c3=O)nnc2N2CCOCC2)c1
→ -0.2%	/	/	-11	-1.3	9	1
(52) COc1cccc2c1OC1(C)CC2NC(=O)N1c1cccc(C(=O)N2CCN(c3ccccc3)CC2)c1 (centres undefined)
→ -1.5%	23	8%	0	0.8	0	13
(53) N#CC1=C(S)N(c2ccccc2)C(c2ccc(-c3cc(Cl)ccc3Cl)o2)NC1=O (centres undefined)
→ 0.5%	23	28µM*	-6	-3.3	-4	-2
(54) O=C(CN1CCN(S(=O)(=O)c2ccc(Cl)s2)CC1)N1CCOCC1
→ 3.0%	-1	17%	-2	0.7	-1	7
(55) Cc1nnc(SCCC(=O)Nc2nc(-c3ccccc3)ns2)s1
→ /	9	6%	-18	-13	-9	-12
(56) Cc1ccccc1Nc1nc(N)nc(COC(=O)[C@@H](NC(=O)c2ccco2)C(C)C)n1
→ 0.1%	/	/	4	6.6	8	-5
(57) COc1ccc2c(c1)c(=O)oc1cc(OCC(=O)NC3CC3)ccc12
→ 7.3%	-5	9%	0	-3.2	6	2
(58) Cc1cc(O)c(C(C)C)cc1NC(=O)Nc1cccc2ccccc12
→ 6.1%	4	-15%	-18	-0.9	-2	1
(59) Cc1ccc(OCCN2CCN(C(=O)CCC(=O)Nc3nnc(C(C)C)s3)CC2)cc1
→ 1.6%	13	8%	-42	2.7	-2	-2
(60) CCOc1ccccc1C1CC(c2cccc(NS(C)(=O)=O)c2)=NN1C(=O)c1ccccc1 (centres undefined)
→ -0.7%	3	-6%	-2	-3.6	1	-6
(61) CN(c1ccc(OCC(=O)OCC(=O)Nc2c(F)c(F)c(F)c(F)c2F)cc1)S(=O)(=O)c1ccc(F)cc1
→ -0.4%	15	29%	-32	-3.3	-4	1
(62) COC(=O)c1c(C)[nH]c(C(=O)C(C)OC(=O)C2=NNC(=O)CC2)c1C (centres undefined)
→ -1.5%	-9	7%	-7	1.2	9	-4
